Calb FLC: C. albicans growth modulation with fluconazole; C. albicans CaCi-2 (fluconazole-resistant clinical isolate) + fluconazole, Alamar Blue growth, 48 h; growth inhibition, % (no concentration beside the values); 300,000 tested, 0.57% active;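 active = most replicates above 75%; inconclusive = exactly half above 75%; inactive = most below 75%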;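 note: all wells also contain fluconazole at 8 µg/ml as a sub-toxic cotreatment; 0% = median of DMSO wells and 100% = median of geldanamycin control wells; wells of about 8 µL received 7.5 nL stock; the first replicate is given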
Bfl-1 A1 inh: inhibitors of the anti-apoptotic protein A1, read as caspase activation | MEF A1-2A-BIM cells, Caspase-Glo 3/7 luminescence, 3 h; percent of clofoctol response, vehicle zero | caspase activation, % (concentration not given with the values) | 330,000 tested, 0.066% active;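 active = over half of replicate activation scores above 10%, or exactly half above 10 with the replicate mean above 10; inconclusive = replicate mean below 10 yet half the replicates above 10; inactive = over half of replicates below 10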;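 note: wells of about 30 µL received 50 nL stock; many hits fall short of the cut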
Beta2AR agonist: agonists of human beta-2 adrenergic receptor inducing internalization; P07550; Am2.2-beta2AR cells, FAP receptor internalization, flow cytometry; reference of the scale not given here; response, % (no concentration beside the values); 340,000 tested, 0.43% active; AID 504454;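 active = response above a set limit, near 3 SD of response in nonfluorescent compounds, cut at about 42% in these data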;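 note: stock transfer was 100 nL into about 11 µL; a reference agonist was the positive control; negative values mostly stem from fluorescent compounds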
Target sequence (P07550 whole entry, looked up): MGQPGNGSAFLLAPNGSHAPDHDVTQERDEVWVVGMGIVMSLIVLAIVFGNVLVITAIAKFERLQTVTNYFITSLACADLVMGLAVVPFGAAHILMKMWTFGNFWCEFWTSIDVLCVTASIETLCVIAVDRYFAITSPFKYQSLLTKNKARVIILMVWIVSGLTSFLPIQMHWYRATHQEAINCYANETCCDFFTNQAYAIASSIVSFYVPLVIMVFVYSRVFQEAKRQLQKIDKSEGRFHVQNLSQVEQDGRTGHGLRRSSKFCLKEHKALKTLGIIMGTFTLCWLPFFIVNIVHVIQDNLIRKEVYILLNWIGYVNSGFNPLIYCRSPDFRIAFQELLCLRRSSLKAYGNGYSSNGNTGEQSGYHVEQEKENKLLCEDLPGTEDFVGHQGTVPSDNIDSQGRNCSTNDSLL
ALR H2O2 inh: blocks human ALR sulfhydryl oxidase activity; P55789; purified ALR, DTT oxidation, H2O2 HRP-luminol luminescence; inhibition, % (concentration not given with the values); 290,000 tested, 3.8% active; AID 485317;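 active = mean and each replicate at 75% or more; inconclusive = only one of the two met; inactive = neither met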;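 note: stock transfer was 7.5 nL into about 7.5 µL; 0% = neutral wells and 100% = wells with inactivated enzyme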
Target sequence (P55789 whole entry, looked up): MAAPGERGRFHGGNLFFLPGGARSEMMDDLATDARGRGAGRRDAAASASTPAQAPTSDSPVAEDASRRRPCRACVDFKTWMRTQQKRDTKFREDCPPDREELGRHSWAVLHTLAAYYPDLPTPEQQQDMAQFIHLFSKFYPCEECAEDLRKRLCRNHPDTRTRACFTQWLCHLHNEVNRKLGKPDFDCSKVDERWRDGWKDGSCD
Ecoli rRNA inh: inhibitors of bacterial rRNA selective over humanized ribosomes; E. coli WT GFP vs humanized-ribosome RFP mutants, fluorescence, 24 h; stronger effect = lower value; DMSO median 0, no signal -100; GFP signal change (wild-type ribosome), % (concentration not given with the values); 350,000 tested, 1.6% active;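 active = significant combined selectivity score with lowered wild-type GFP, culture density cut under 30%, mutant RFP and density less affected; inactive = any of these conditions unmet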; note: one replicate is shown; some compounds called inactive have numbers as strong as hits
LANA-H2A inh: blocks KSHV LANA binding to histone H2A/H2B | AID 2629 | 320,000 tested, 0.6% active | cell-free LANA-H2A/H2B peptide, fluorescence polarization | inhibition, % (test concentration not listed) | Q9QR71; in the data active = inhibition mostly above about 10%, no sharp cut-off; inactive = mostly below about 6.7%;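 note: stock transfer was 7.5 nL into about 10 µL; 0% = median of vehicle wells and 100% = median of positive control wells; one replicate is shown; the record names a cut of 25% in any replicate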
Beta cell apopt: beta cell apoptosis inhibition; 300,000 tested, 0.8% active; INS-1E cytokine-induced death, ATP luminescence, 48 h; percent of positive-control rescue, neutral wells zero; protection from apoptosis, % (test concentration not listed);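 active = all replicates at 75% or more, or half of them and the mean; inconclusive = half reach 75% but not the mean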;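 note: 0% = cytokine-treated negative control wells and 100% = positive control rescue; higher means more ATP so stronger rescue from cytokine killing; wells of about 40 µL received 100 nL stock; the first replicate is given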
T cruzi repl: blocks replication of Trypanosoma cruzi | T. cruzi beta-gal in NIH3T3, luminescence, 90 h | 300,000 tested, 1.4% active | inhibition, % (no concentration beside the values);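 active = mean inhibition across valid replicates above about 55%, limit read from the data; inconclusive = mean below that limit but half or more replicates reach it; inactive = mean below it, under half of replicates reach it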;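 note: signal also drops with host cell toxicity which is not excluded here; 0% = plate median of DMSO wells and 100% = zero luminescence signal; higher percent means less beta-gal luminescence so fewer parasites; stock transfer was 50 nL into about 50 µL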
Ecoli rRNA inh OD600: further read-out of Ecoli rRNA inh, marked with its call; OD600 change, %; measured here: OD600 growth;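 optical density of the mix in the first replicate; 0 = DMSO median and -100 = no signal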
Ecoli rRNA inh RFP: recorded beside Ecoli rRNA inh, whose call it bears; RFP signal change, %; measured here: RFP humanized mutant strains;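 first replicate; 0 = DMSO median and -100 = no signal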
The depositor's hits bear a star; & = joins results of further samples. Some of the compounds tested; count on the stated rates, not on these rows.

Screening COc1ccc(S(=O)(=O)NCCc2cn3nc(C)c(C)nc3n2)cc1 returned Calb FLC 0, Bfl-1 A1 inh 0.2, Beta2AR agonist -1, ALR H2O2 inh -15, Ecoli rRNA inh 10, LANA-H2A inh 2.3, Beta cell apopt -7, T cruzi repl 3, Ecoli rRNA inh OD600 15 and Ecoli rRNA inh RFP -1.9.
O=C(CSc1nc2cc(Cl)ccc2s1)NCC1CCCO1 (configuration not stated) was read as Bfl-1 A1 inh -0.1, Beta2AR agonist -5, ALR H2O2 inh 24, Ecoli rRNA inh -11, LANA-H2A inh -6.5, Beta cell apopt -1, Ecoli rRNA inh OD600 -26 and Ecoli rRNA inh RFP 0.7.
O=S(=O)(c1ccccc1)N1CCC(N2CCCCCC2)CC1 was read as Calb FLC -2, Bfl-1 A1 inh -0.1, Beta2AR agonist -4, ALR H2O2 inh -20, LANA-H2A inh -4.3, Beta cell apopt 1 and T cruzi repl 2.
CCOC(=O)/C(C#N)=C/Nc1ccccc1OC(F)(F)F was read as Calb FLC -7, Bfl-1 A1 inh 0.8, Beta2AR agonist 1, Ecoli rRNA inh 18, LANA-H2A inh -5.2, Beta cell apopt -6, T cruzi repl 3, Ecoli rRNA inh OD600 7 and Ecoli rRNA inh RFP 0.9.
For CC1=C(C(=O)OCc2ccccc2)C(c2ccccn2)c2c(n(C)c(=O)n(C)c2=O)N1 (configuration not stated) the results were Calb FLC -2, Bfl-1 A1 inh 0.0, Beta2AR agonist -13&-13, ALR H2O2 inh -3, Ecoli rRNA inh -2, LANA-H2A inh 5.8, Beta cell apopt 2, T cruzi repl 18, Ecoli rRNA inh OD600 -6 and Ecoli rRNA inh RFP 4.8.
`O=C(NNC(=S)Nc1ccc(Br)cc1)c1ccccc1` gave Calb FLC 35, Bfl-1 A1 inh 0.9, Beta2AR agonist 7, ALR H2O2 inh 97*, Ecoli rRNA inh -47, LANA-H2A inh 0.8, Beta cell apopt 10, T cruzi repl -4, Ecoli rRNA inh OD600 -69 and Ecoli rRNA inh RFP -14.
`Cc1c(C)n(CC(O)CN2CCN(C)CC2)c2ccccc12` (configuration not stated) gave Calb FLC -2, Bfl-1 A1 inh 0.1, Beta2AR agonist 0, ALR H2O2 inh 59, Ecoli rRNA inh 4, LANA-H2A inh -2.2, Beta cell apopt -8, T cruzi repl 22, Ecoli rRNA inh OD600 18 and Ecoli rRNA inh RFP 0.3.
`COc1cc2c(cc1OC)CN(C1CC(=O)N(c3c(C)cccc3C)C1=O)CC2` (configuration not stated) gave Calb FLC 10, Bfl-1 A1 inh -1.7, Beta2AR agonist -8, Ecoli rRNA inh 1, Beta cell apopt 0, T cruzi repl -5, Ecoli rRNA inh OD600 -1 and Ecoli rRNA inh RFP -0.9.
For Cc1c(NC(=O)COc2ncnc3c(Cl)cc(Cl)cc23)c(=O)n(-c2ccccc2)n1C the results were Calb FLC 3, Bfl-1 A1 inh 1.5, Beta2AR agonist -5, LANA-H2A inh 2.1, Beta cell apopt -1 and T cruzi repl 4.
`O=C(CCCCn1c(=O)[nH]c2ccccc2c1=O)N1CCN(c2ncccn2)CC1` gave Calb FLC 1, Bfl-1 A1 inh 0.6, Beta2AR agonist -7, ALR H2O2 inh -17, Ecoli rRNA inh 7, LANA-H2A inh 0.3, Beta cell apopt 0, T cruzi repl -4, Ecoli rRNA inh OD600 6 and Ecoli rRNA inh RFP 0.5.
For CC(=O)c1c(C)[nH]c(C(=O)Nc2nc(-c3ccc(-c4ccccc4)cc3)cs2)c1C the results were Calb FLC 35, Bfl-1 A1 inh -1.5, Beta2AR agonist 25, ALR H2O2 inh -7, LANA-H2A inh 1.5, Beta cell apopt 44 and T cruzi repl 69*.
`COC(=O)C1=C2SCC(=O)N2C(N)=C(C#N)C1` gave Calb FLC 6, Bfl-1 A1 inh -0.5, Beta2AR agonist -3, ALR H2O2 inh 4, Ecoli rRNA inh 13, LANA-H2A inh 1.4, Beta cell apopt 45, T cruzi repl -20, Ecoli rRNA inh OD600 15 and Ecoli rRNA inh RFP 0.0.
For CCc1nnc(NC(=O)CCC(=O)N2CCN(CCOc3ccc(C)cc3)CC2)s1 the results were Calb FLC -8, Bfl-1 A1 inh -0.2, Beta2AR agonist -6, ALR H2O2 inh -4, LANA-H2A inh -5.5, Beta cell apopt 4 and T cruzi repl -7.
`CCOP(=O)(OCC)/C(C#N)=C/c1ccc([N+](=O)[O-])cc1` gave Calb FLC 3, Bfl-1 A1 inh 0.4, Beta2AR agonist -68, Ecoli rRNA inh 13, LANA-H2A inh -4.7, Beta cell apopt -2, T cruzi repl -15, Ecoli rRNA inh OD600 17 and Ecoli rRNA inh RFP -0.3.
CC(=O)c1ccc(N2CCC(c3cc(-c4ccc(Cl)cc4Cl)n[nH]3)CC2)c([N+](=O)[O-])c1 was read as Calb FLC 15, Bfl-1 A1 inh -0.1, Beta2AR agonist 0, ALR H2O2 inh -4, LANA-H2A inh -0.8, Beta cell apopt 20 and T cruzi repl 62*.
COc1ccc(CSc2nc3ccccc3c(=O)n2CCCN2CCOCC2)cc1F was read as Calb FLC 26, Bfl-1 A1 inh -0.1, Beta2AR agonist -11, ALR H2O2 inh -36, Ecoli rRNA inh -28*, LANA-H2A inh -1.3, T cruzi repl 31, Ecoli rRNA inh OD600 -14* and Ecoli rRNA inh RFP -1.6*.
For Cn1cnnc1SCC(=O)Nc1sccc1C#N the results were Calb FLC -3, Bfl-1 A1 inh 0.3, Beta2AR agonist 4, ALR H2O2 inh -11, Ecoli rRNA inh 1, LANA-H2A inh -12, Beta cell apopt -3, T cruzi repl -15, Ecoli rRNA inh OD600 -4 and Ecoli rRNA inh RFP 2.5.
O=C(CC(Nc1ccc(Cl)cc1Cl)C(=O)O)c1ccccc1 (configuration not stated) was read as Calb FLC -14, Bfl-1 A1 inh -0.9, Beta2AR agonist 3, Ecoli rRNA inh -3, LANA-H2A inh 1.0, Beta cell apopt -1, T cruzi repl -1, Ecoli rRNA inh OD600 -2 and Ecoli rRNA inh RFP -0.5.
CCn1nc(C)c(/C=N\NC(=O)c2cccc(OC)c2)c1C was read as Calb FLC -2, Bfl-1 A1 inh -0.3, Beta2AR agonist -1, ALR H2O2 inh -2, Ecoli rRNA inh 1, LANA-H2A inh -2.8, Beta cell apopt 2, T cruzi repl -14, Ecoli rRNA inh OD600 4 and Ecoli rRNA inh RFP 4.8.
COC(=O)CN(c1cc(Cl)ccc1OC)S(=O)(=O)c1ccc(OC)c(OC)c1 was read as Calb FLC 4, Bfl-1 A1 inh -0.3, Beta2AR agonist 6, ALR H2O2 inh -1, Ecoli rRNA inh -14, LANA-H2A inh 1.5, Beta cell apopt -1, T cruzi repl -10, Ecoli rRNA inh OD600 -11 and Ecoli rRNA inh RFP -9.9.
`COC(=O)c1cc(C(=O)c2cccc(Cl)c2Cl)cn1C` gave Calb FLC inconclusive, Bfl-1 A1 inh -0.4, Beta2AR agonist 1, LANA-H2A inh -0.1, Beta cell apopt 5 and T cruzi repl 9.
CCOc1ccc(NC(=O)C2CCN(S(=O)(=O)c3ccc4c(c3)N(C(C)=O)CCO4)CC2)cc1 was read as Calb FLC -6, Bfl-1 A1 inh -2.4, Beta2AR agonist 2, ALR H2O2 inh -4, Ecoli rRNA inh -9, LANA-H2A inh -5.4, Beta cell apopt 8, T cruzi repl 4, Ecoli rRNA inh OD600 -13 and Ecoli rRNA inh RFP 0.4.
O=C1CN(C(=O)CNCc2ccccc2)c2ccccc2N1 was read as Calb FLC 0, Bfl-1 A1 inh -0.4, Beta2AR agonist 16, ALR H2O2 inh -2, Ecoli rRNA inh 8, LANA-H2A inh -0.6, Beta cell apopt -3, T cruzi repl -1, Ecoli rRNA inh OD600 8 and Ecoli rRNA inh RFP 0.7.
Screening COc1ccccc1OCCNC(=O)C1CC(=O)N(c2cccc(SC)c2)C1 (configuration not stated) returned Calb FLC 1, Bfl-1 A1 inh 0.4, Beta2AR agonist -1, Ecoli rRNA inh 2, Beta cell apopt -3, T cruzi repl 5, Ecoli rRNA inh OD600 3 and Ecoli rRNA inh RFP -1.1.
C=CCn1c(=O)c2ccccc2n2c(SCc3c(C(=O)OCC)oc4ccccc34)nnc12 was read as Calb FLC 8, Bfl-1 A1 inh 0.2, Beta2AR agonist -1, ALR H2O2 inh -6, LANA-H2A inh -3.5, Beta cell apopt 11 and T cruzi repl -4.
CC(C)(C)c1ccc(NC(=O)CC2(C(F)(F)F)OCCO2)cc1 was read as Calb FLC -20, Bfl-1 A1 inh 0.2, Beta2AR agonist -2, ALR H2O2 inh 0, LANA-H2A inh 0.0, Beta cell apopt -10 and T cruzi repl 19.
For CCc1ccc(S(=O)(=O)NCCc2cn3ccc(C)cc3n2)s1 the results were Calb FLC 9, Bfl-1 A1 inh 0.1, Beta2AR agonist -6, ALR H2O2 inh -1, Ecoli rRNA inh 7, LANA-H2A inh -2.0, Beta cell apopt 0, T cruzi repl -11, Ecoli rRNA inh OD600 5 and Ecoli rRNA inh RFP 0.3.
`CCOC(=O)c1ccccc1NC(=O)CN(c1ccccc1)S(=O)(=O)N(C)C` gave Calb FLC 49, Bfl-1 A1 inh -0.3, Beta2AR agonist -1, ALR H2O2 inh -3, LANA-H2A inh 0.9, Beta cell apopt -3 and T cruzi repl 20.
Screening Cc1nc2sc(-c3ccccc3)cc2c(=O)n1-n1cccc1 returned Calb FLC -5, Bfl-1 A1 inh -5.0, Beta2AR agonist -7, ALR H2O2 inh -6, LANA-H2A inh 0.4, Beta cell apopt 8 and T cruzi repl 3.
`Cc1sc(NC(=O)Cc2ccc3c(c2)OCO3)nc1-c1ccc2c(c1)CCN2C(=O)c1cccc(F)c1` gave Calb FLC -4, Bfl-1 A1 inh 0.8, Beta2AR agonist 8, Beta cell apopt 18 and T cruzi repl 50.
Screening CCOc1cc(C(=S)N2CCOCC2)ccc1OC returned Calb FLC 8, Bfl-1 A1 inh -1.4, Beta2AR agonist 0, ALR H2O2 inh -20, LANA-H2A inh 4.6, Beta cell apopt -3 and T cruzi repl -7.
Screening CC(=O)c1c(C)[nH]c(C(=O)COC(=O)c2c(C)noc2C)c1C returned Bfl-1 A1 inh 0.2, Beta2AR agonist 1, ALR H2O2 inh 0, Ecoli rRNA inh 2, LANA-H2A inh 2.9, Beta cell apopt -6, Ecoli rRNA inh OD600 8 and Ecoli rRNA inh RFP -0.7.
Screening COc1cccc(Oc2nc3ncn(Cc4ccccc4)c3c(=O)n2C)c1 returned Calb FLC -14, Bfl-1 A1 inh 0.3, Beta2AR agonist -5, ALR H2O2 inh -3, LANA-H2A inh 1.5, Beta cell apopt -3 and T cruzi repl -7.
Screening O=C(N1CCCC1)n1c(Cc2ccccc2)nc2ccccc21 returned Calb FLC -7, Bfl-1 A1 inh 1.3, Beta2AR agonist 9, LANA-H2A inh -2.8 and T cruzi repl 2.

Source: PubChem BioAssay
